# PABP polyA inh = PABP-poly(A) binding inhibition; P11940; PABP-poly(A) RNA binding, fluorescence polarization; inhibition, % at 35 µM; hit rate 1% among 290,000;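 active = 50% or more with normal probe brightness, or confirmed in later tests; about a fifth of its hits are not listed in these tables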;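 also: calls also rest on retests at 20 µM and on dose response follow-up; controls were probe without protein and protein plus probe with vehicle; some compounds called inactive have numbers as strong as hits; many hits fall short of the cut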
# Target sequence (P11940 whole entry, looked up): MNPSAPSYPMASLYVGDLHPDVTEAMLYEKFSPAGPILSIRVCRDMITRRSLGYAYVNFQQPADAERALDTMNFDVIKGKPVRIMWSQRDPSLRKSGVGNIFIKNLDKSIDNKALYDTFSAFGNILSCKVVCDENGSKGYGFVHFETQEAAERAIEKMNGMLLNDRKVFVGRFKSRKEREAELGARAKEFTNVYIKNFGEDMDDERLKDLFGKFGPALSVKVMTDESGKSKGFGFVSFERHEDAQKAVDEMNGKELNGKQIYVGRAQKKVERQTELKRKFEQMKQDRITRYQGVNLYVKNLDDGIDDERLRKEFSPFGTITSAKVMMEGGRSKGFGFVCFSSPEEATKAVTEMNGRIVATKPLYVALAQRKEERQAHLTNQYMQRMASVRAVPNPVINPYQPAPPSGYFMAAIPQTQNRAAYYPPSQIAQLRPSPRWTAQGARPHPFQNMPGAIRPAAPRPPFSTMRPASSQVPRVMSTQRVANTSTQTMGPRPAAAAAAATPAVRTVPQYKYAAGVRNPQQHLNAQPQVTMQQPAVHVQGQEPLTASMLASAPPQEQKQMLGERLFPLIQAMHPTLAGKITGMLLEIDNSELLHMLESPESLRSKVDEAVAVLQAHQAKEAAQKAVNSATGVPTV
# MT1-MMP act inh = inhibitors of human MT1-MMP activation. GFP/RFP ratio change, % at 20 µM. P50281. HT1080 RFP-PRO-GFP cells, GFP/RFP ratio fluorescence, overnight; percent of plate control window, DMSO zero. hit rate 0.061% among 360,000;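 active = GFP/RFP ratio change of at least 30% with cell ATP level not reduced by more than half and red fluorescence within 50% of control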; also: strong numbers were not always called active
#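 Assay system: HT1080 RFP-PRO-GFP cells | Dosing: 20 µM single dose, 1% DMSO | Incubation: Cells overnight before dosing, compound overnight, 37 °C, 5% CO2 | Evaluation: GFP/RFP fluorescence ratio | Control set: DMSO-only wells and HT1080 RFP-L50D-GFP cell wells as references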
# eIF4H FP inh = inhibitors of RNA binding by human eIF4H. eIF4H fluorescence polarization binding assay. inhibition, % at 35 µM. hit rate 0.94% among 290,000. AID 2012;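 active = 50% or more with normal probe brightness, or confirmed in later tests; about a fifth of its hits are not listed in these tables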;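 also: calls also rest on retests at 20 µM and on dose response follow-up; 0% = protein and probe with vehicle and 100% = probe without protein; strong numbers were not always called active; many hits fall short of the cut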
# CSC inhib = cancer stem cell inhibition. inhibition, % at 7.5 µM. cancer stem cell-like cells viability, luminescence. hit rate 1.1% among 300,000;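 active = mean at 75% or more and at least half the replicates too; tested in HMLE shEcad cells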;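 also: 0% = median of negative and 100% = median of positive control wells; the first replicate is given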
# Env fusion inh = inhibitors of HIV Env-mediated cell fusion. inhibition, % at 12.3 µM. AID 651610. hit rate 1.1% among 360,000. HeLa-JRFL Env/CEM21 cell fusion, luciferase;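 active = mean replicate inhibition score of at least 50 and every replicate individually at or above 50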;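 also: 0% = plate neutral controls and 100% = maraviroc near 300 nM; one replicate is shown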
# UUG fidelity = yeast start codon fidelity modulation | S. cerevisiae UUG-firefly luciferase reporter, luminescence/redox ratio | activity score, % at 18.7 µM | hit rate 0.13% among 350,000 | AID 602363;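 active = replicate mean at a twofold rise or more, about +100% in these data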;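 also: firefly luciferase made from a UUG start codon reports start codon fidelity; reporter light over untreated wells divided by growth signal over untreated wells; some hits fall short of that in this replicate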
# Rce1 inhib = yeast Ras-converting enzyme inhibition; AID 2563; calls only; yeast membranes, quenched prenylated peptide cleavage fluorescence; hit rate 0.27% among 290,000;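 active = fall in fluorescence gain of 50% or more versus controls, with final raw signal at or below 3038400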;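 also: plate controls were neutral control wells for no effect and wells lacking membranes for full effect; tested at 10 µM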
# Target sequence (Q03530 whole entry, looked up): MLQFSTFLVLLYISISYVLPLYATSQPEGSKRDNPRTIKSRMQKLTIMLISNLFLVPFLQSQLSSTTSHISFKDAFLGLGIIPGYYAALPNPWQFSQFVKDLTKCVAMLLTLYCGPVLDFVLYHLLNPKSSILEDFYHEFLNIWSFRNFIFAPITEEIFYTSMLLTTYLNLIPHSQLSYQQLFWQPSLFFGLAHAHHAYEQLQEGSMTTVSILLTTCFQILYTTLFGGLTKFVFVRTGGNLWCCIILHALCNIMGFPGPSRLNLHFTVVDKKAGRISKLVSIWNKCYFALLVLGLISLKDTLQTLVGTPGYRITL
# MT1-MMP act inh RFP = second read-out of MT1-MMP act inh, no call of its own (marks repeat the call); RFP signal change, %; measured here: RFP expression control read;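 0 = vehicle wells; hits needed this value within 50% of zero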
# An asterisk follows results filed as active; i = inactive; . = no result given; & = joins results of further samples; [ ] = remark or other dose. Not all compounds are listed (hit frequency here may not be typical).
SMILES,PABP polyA inh,MT1-MMP act inh,MT1-MMP act inh RFP,eIF4H FP inh,CSC inhib,Env fusion inh,UUG fidelity,Rce1 inhib
Cc1cc2c(c(C#N)c1C)NC=NC2C (configuration not stated),.,-5,-3,.,.,7,-16,.
CC(=O)c1ccc(CCCc2ccc(C(C)=O)cc2)cc1,.,3,-7,.,.,-1,-7,.
COCCNC(=O)C1(C)CCN(C(=O)c2cc(C(C)(C)C)nn2C)C1 (configuration not stated),.,0,0,.,.,0,-16,.
CCOC(=O)N1CCN(C(=O)Cc2cccs2)CC1,9,0,5,2,-15,.,.,i
Cc1c(C(=O)N(C)C(C)c2ccccn2)oc2c(F)cccc12 (configuration not stated),9,-2,-2,10,9,-12,-9,i
CC(Oc1ccc(Cl)cc1)c1ccc(C#N)c(=O)[nH]1 (configuration not stated),-5,0,0,14,-5,30,.,i
Cc1cc(NC(=O)c2ccccc2NS(=O)(=O)c2c(C)c(C)cc(C)c2C)no1,5,2,-14,-3,44,35,-12,i
Cc1ccc(C(=O)N2CCC(C(=O)c3ccc(F)cc3)CC2)cc1,.,1,-11,.,.,7,4,.
CN(C)CCCNC(=O)c1ccc(-c2cc3nc(NCc4cccnc4)n(C)c(=O)c3s2)cc1,.,-3,5,.,.,-16,-8,.
CC(C)C(=O)Nc1cccc(-c2cn3ccccc3n2)c1,10,-3,0,-10,-5,-1,.,i
CN1C(=S)SC(C)(C)C1/[N+]([O-])=C/c1cccnc1 (configuration not stated),0,-1,5,3,-7,.,0,i
Cc1sc(NC(=O)C2C3CCC(O3)C2C(=O)O)nc1-c1ccc(CC(C)C)cc1 (configuration not stated),-3,-1,-3,2,20,.,.,i
Cc1ccc(N/C(C(Cl)=C(Cl)Cl)=C(/Cl)[N+](=O)[O-])c(C)c1,-1,-2,0,12,.,19,.,.
Cc1cc(C)n2nc(C(=O)Nc3cccnc3)nc2n1,9,0,-1,4,-1,.,-4,i
Cc1ccc2c(c1C)OC(=O)CC2c1ccccc1 (configuration not stated),-3,1,2,14,-15,-59,-12,i
COc1ccc(-c2oc(=O)c3cc(OC)c(OC)cc3c2C(F)(F)F)cc1,.,6,-3,.,0,-23,15,.
CCOc1ccc(S(=O)(=O)N/N=C(\C)c2ccc(Cl)c(Cl)c2Cl)cc1,-5,6,9,-17,58,-2,-12,i
CC(=O)Nc1ccc(S(=O)(=O)NNC(=O)c2cc3c4ccccc4n(C)c3s2)cc1,11,-6,-4,1,-6,-106,-8,i
CC(C)N1CCN(Cc2cccn2-c2cccnc2)CC1CCO (configuration not stated),29,2,6,5,3,15,.,i
CCCCc1nnc(NC(=O)C2=COCCO2)s1,-1,-1,3,1,.,-17,-18,i
Cc1cnc(NC(=O)CSc2nnc(-c3cccs3)n2C)s1,-2,-8,-2,2,-4,-28,-17,i
COc1cc(C(=S)N2CCN(c3ccccc3Cl)CC2)cc(O)c1O,-3,-1,-5,32,41,-11,.,i
Cn1c(NC(=O)CC2CCCCC2)cc(=O)n(C)c1=O,4,4,2,-9,0,-54,-7,i
N#Cc1c(NCCO)nc(NCc2ccccc2)c2c1CCN(Cc1ccccc1)C2,32,.,.,45,7,.,.,i
CC1(C)Cn2c(nc(=O)c3c2NCN(CCc2ccccc2)C3)S1,-5,-2,1,1,-7,.,.,i

# Continuation:
SMILES,PABP polyA inh,MT1-MMP act inh,MT1-MMP act inh RFP,eIF4H FP inh,CSC inhib,Env fusion inh,UUG fidelity,Rce1 inhib
CCNc1c([N+](=O)[O-])c(=O)n(CC)c2ccccc12,2,-1,-6,-12,-3,12,-4,i
N#CC(c1ccccc1)c1cccc(Cl)n1 (configuration not stated),-1,1,3,-13,0,-8,.,i
Cc1ccc(-c2cc(C(=O)NCCCn3ccnc3)c3cc(Br)ccc3n2)o1,9,-5,2,9,5,.,-19,.
Brc1ccccc1CN1CCC(N2CCCCC2)CC1,13,8,3,1,46,-59,-5,i
Cc1cccc(CN2CCCC(C(=O)N3CCc4ccccc4C3)C2)c1 (configuration not stated),18,3,5,-7,9,-8,-15,i
Cc1nn(CC(=O)Nc2c(F)c(F)cc(F)c2F)c(=O)c2cccn12,2,2,3,1,-7,2,-8,i
O=C(Cc1ccc([N+](=O)[O-])cc1)Nc1cccc(C(=O)N2CCCCC2)c1,.,2,-19,.,-12,5,-5,.
Cc1cc(C)c(C#N)c(=N)o1,11,-4,1,10,1,.,.,i
Cc1cccc(C)c1NC(=O)CSC(=S)N1CCCC1,12,2,3,-5,-9,22,.,i
CCOc1ccc(CCNC(=O)CSc2n[nH]c(N)n2)cc1OCC,3,2,2,-8,-7,-5,-25,i
CCOC(=O)N1CCC(N2CCN(S(=O)(=O)c3ccc(C)cc3)CC2)CC1,13,0,-3,-10,20,-32,.,i
O=C(N/N=C/c1ccc(O)cc1)c1cc(C2CC2)[nH]n1,-6,0,4,-8,-4,-3,-8,.
COc1ccc(Cl)cc1NC(=O)C1Cc2cc(S(=O)(=O)N3CCCC3)ccc2N1C(C)=O (configuration not stated),5,1,3,1,-7,6,-13,i
COC(=O)CCSCC(=O)Nc1ccc(C)c(S(=O)(=O)N2CCCCC2)c1,-1,3,-4,-10,-8,-6,-6,i
COC(=O)c1cc(OC)c(OC)cc1NC(=O)c1csc(C)c1,-1,0,-3,-2,20,-5,-24,i
COc1ccc(-c2cnnc(N/N=C/c3ccc(C)o3)n2)cc1,6,6,1,12,.,-20,-27,i
CN(Cc1ccccc1)C(=O)c1ccc(NC2=NC3CS(=O)(=O)CC3S2)cc1 (configuration not stated),-2,11,8,-7,.,4,-13,i
CCOC(=O)c1ccc(NC(=S)Nc2ccc(Br)cc2N)cc1,.,7,-2,.,-3,13,-10,i
O=C(CSc1ncccn1)Nc1cccc(S(=O)(=O)N2CCOCC2)c1,.,2,3,.,-6,.,-5,.
COc1ccc(C/C(C)=N/NS(=O)(=O)c2ccc(Br)cc2)cc1,16,2,3,-4,.,-12,-6,i
CCOCc1nnc(NC(=O)c2cc(OC)c(OC)cc2[N+](=O)[O-])s1,-7,3,4,7,-3,-1,3,i
Cc1ccc(C(=O)N2CCN(c3ccccc3)CC2)cc1C,13,6,7,-4,-11,.,-2,i
COCCNC(=O)CN(Cc1ccc(OC)cc1)C(=O)CCC(=O)Nc1nccs1,6,-2,-1,0,-4,-7,-18,.
COc1ccc(C)cc1NC(=O)NC1CCCc2ccccc21 (configuration not stated),2,-4,-3,-6,2,3,-7,i
CCO[C@H]1OC(C(=O)O)=C[C@@H](c2csc3ccccc23)[C@@H]1CCCO,-6,1,0,-1,-20,-9[16.7 µM],12&-12,i

# Further structures
SMILES,PABP polyA inh,MT1-MMP act inh,MT1-MMP act inh RFP,eIF4H FP inh,CSC inhib,Env fusion inh,UUG fidelity,Rce1 inhib
C=CCC1(/C=N/O)CCOC(C)(C)C1 (configuration not stated),2,-1,2,3,-7,3,.,i
CCN1N=C(c2ccccc2)Cn2c1nc1ccccc12,1,-5,-4,-5,-3,.,-3,i
N#CC(c1ccc(Cl)cc1)c1ncc(C(F)(F)F)cc1Cl (configuration not stated),3,5,0,4,-10,8,-8,i
O=C(NCCC1=CCCCC1)c1ccc(Cl)cc1,3,.,.,33,-5,.,.,i
O=C(COc1ccc(Cl)cc1Br)NC(=O)NCc1ccccc1,2,0,0,-13,.,-7,.,i
O=C(Nc1cc(Cl)ccc1Cl)C1CC(=O)N(c2ccc(Br)cc2)C1 (configuration not stated),-17,4,2,-5,-10,-79,-10,i
O=S(=O)(Nc1ccc(N2CCOCC2)cc1)c1cccs1,-1,1,5,-5,3,.,-21,i
COc1ccc(Oc2c(O)c3ccccc3n(C)c2=O)cc1,1,4,11,1,-9,11,.,i
CCN(CC(=O)Nc1c(F)cccc1F)C(=O)c1ccc(N2CCOCC2)c([N+](=O)[O-])c1,.,2,-4,.,-4,.,-5,.
CC1(C)OC(=CC=Nc2ccc(Cl)cc2)OC1(C)C,-7,-1,2,-1,49,23,-29,i
Cc1c(C(=O)N2CCCCC2)oc2ccccc12,.,-2,-1,.,-10,-13,-5,.
O=C(CCCCCCCCC(=O)N1CCCCC1)N1CCCCC1,.,2,-9,.,.,-2,-3,.
CCCCOc1ncnc2c1[nH]c1ccc(OC)cc12,3,.,.,-3,13,-266,.,i
CS(=O)(=O)N(CC(=O)Nc1ccc2c(c1)OCCO2)c1ccc2c(c1)OCO2,15,-6,1,-9,-5,.,4,i

# Structures listed so far with four or more nitrogen atoms (18):
SMILES,PABP polyA inh,MT1-MMP act inh,MT1-MMP act inh RFP,eIF4H FP inh,CSC inhib,Env fusion inh,UUG fidelity,Rce1 inhib
COCCNC(=O)C1(C)CCN(C(=O)c2cc(C(C)(C)C)nn2C)C1 (configuration not stated),.,0,0,.,.,0,-16,.
CN(C)CCCNC(=O)c1ccc(-c2cc3nc(NCc4cccnc4)n(C)c(=O)c3s2)cc1,.,-3,5,.,.,-16,-8,.
Cc1cc(C)n2nc(C(=O)Nc3cccnc3)nc2n1,9,0,-1,4,-1,.,-4,i
CC(=O)Nc1ccc(S(=O)(=O)NNC(=O)c2cc3c4ccccc4n(C)c3s2)cc1,11,-6,-4,1,-6,-106,-8,i
CC(C)N1CCN(Cc2cccn2-c2cccnc2)CC1CCO (configuration not stated),29,2,6,5,3,15,.,i
Cc1cnc(NC(=O)CSc2nnc(-c3cccs3)n2C)s1,-2,-8,-2,2,-4,-28,-17,i
N#Cc1c(NCCO)nc(NCc2ccccc2)c2c1CCN(Cc1ccccc1)C2,32,.,.,45,7,.,.,i
CC1(C)Cn2c(nc(=O)c3c2NCN(CCc2ccccc2)C3)S1,-5,-2,1,1,-7,.,.,i
Cc1ccc(-c2cc(C(=O)NCCCn3ccnc3)c3cc(Br)ccc3n2)o1,9,-5,2,9,5,.,-19,.
Cc1nn(CC(=O)Nc2c(F)c(F)cc(F)c2F)c(=O)c2cccn12,2,2,3,1,-7,2,-8,i
CCOc1ccc(CCNC(=O)CSc2n[nH]c(N)n2)cc1OCC,3,2,2,-8,-7,-5,-25,i
O=C(N/N=C/c1ccc(O)cc1)c1cc(C2CC2)[nH]n1,-6,0,4,-8,-4,-3,-8,.
COc1ccc(-c2cnnc(N/N=C/c3ccc(C)o3)n2)cc1,6,6,1,12,.,-20,-27,i
O=C(CSc1ncccn1)Nc1cccc(S(=O)(=O)N2CCOCC2)c1,.,2,3,.,-6,.,-5,.
CCOCc1nnc(NC(=O)c2cc(OC)c(OC)cc2[N+](=O)[O-])s1,-7,3,4,7,-3,-1,3,i
COCCNC(=O)CN(Cc1ccc(OC)cc1)C(=O)CCC(=O)Nc1nccs1,6,-2,-1,0,-4,-7,-18,.
CCN1N=C(c2ccccc2)Cn2c1nc1ccccc12,1,-5,-4,-5,-3,.,-3,i
CCN(CC(=O)Nc1c(F)cccc1F)C(=O)c1ccc(N2CCOCC2)c([N+](=O)[O-])c1,.,2,-4,.,-4,.,-5,.

# Only PABP polyA inh, for 2 of the compounds above:
Compound	PABP polyA inh
O=C(NCCC1=CCCCC1)c1ccc(Cl)cc1	3
O=C(COc1ccc(Cl)cc1Br)NC(=O)NCc1ccccc1	2

# Assay outcomes from PubChem BioAssay.
